Screening data: PubChem, National Center for Advancing Translational Sciences (NCATS)
HPGD block: HPGD (human) dehydrogenase inhibition. P15428. purified HPGD, NADH fluorescence kinetic, PGE2 substrate. Potency, µM, inactives show at the highest dose activity change, negative = inhibition, actives largely listed as inhibitors. 150,000 compounds, 4.3% hits. AID 894; active = well fitted inhibition curve with a large enough effect (not every such curve was filed as active); inconclusive = small, poorly fitted or top-dose-only effect, or another doubt; inactive = no such curve, though single readings can be large or run the other way;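 further: top concentration of the series not given in the record; plate controls included wells without enzyme; inactives centre near -10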
Target sequence (P15428 whole entry, looked up): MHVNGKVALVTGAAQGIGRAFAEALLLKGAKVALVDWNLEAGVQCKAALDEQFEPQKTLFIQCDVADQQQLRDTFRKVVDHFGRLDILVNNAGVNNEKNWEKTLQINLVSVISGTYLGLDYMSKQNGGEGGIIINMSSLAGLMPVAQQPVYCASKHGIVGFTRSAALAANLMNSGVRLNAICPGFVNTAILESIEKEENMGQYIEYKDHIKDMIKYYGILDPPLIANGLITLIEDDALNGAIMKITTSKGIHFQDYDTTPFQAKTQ
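20 nM HPGD preincubated 15 min at room temperature with compound in 50 mM Tris-HCl pH 8, 0.01% Tween 20. Started with 1 mM NAD+ and 30 uM prostaglandin E2; NADH fluorescence (360/450 nm) read 5 times over 30-s intervals, last minus first.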
* = called active by the depositor; ? = inconclusive; & = joins results of further samples. On the % scale 0 is the no-effect control and ±100 the full control effect; potency means the concentration at half of the fitted maximal effect.

Start of the listing, in advance (four entries):
SMILES | HPGD block
O=C(NCc1ccc2[nH]c3c(c2c1)CCCC3)c1ccc(S(=O)(=O)N2CCOCC2)cc1 | -7%
c1ccc(Sc2ncnc3c2oc2ccccc23)cc1 | 32µM*
O=C(NCCCN1CCOCC1)c1ccc(CNS(=O)(=O)c2ccc(F)cc2)cc1 | -7%
COc1ccccc1CNC(=O)C1CC(=O)N(c2ccc(C)c(C)c2)C1 (centres undefined) | -1%

This part in full, from the first entry:
SMILES | HPGD block
O=C(NCc1ccc2[nH]c3c(c2c1)CCCC3)c1ccc(S(=O)(=O)N2CCOCC2)cc1 | -7%
c1ccc(Sc2ncnc3c2oc2ccccc23)cc1 | 32µM*
O=C(NCCCN1CCOCC1)c1ccc(CNS(=O)(=O)c2ccc(F)cc2)cc1 | -7%
COc1ccccc1CNC(=O)C1CC(=O)N(c2ccc(C)c(C)c2)C1 (centres undefined) | -1%
O=C(c1ccco1)N1CCCC(c2ccccc2)C1 (centres undefined) | -5%
Cc1nnc(C)n1N1C(=O)c2cccc3cccc(c23)C1=O | ?
O=C(/C=C/c1ccccc1)NC(=S)Nc1ccccc1C(=O)NC1CCCCC1 | 0%
Cc1ccc(CSc2nnc(-c3ccco3)n2N)cc1 | -16%
CC1=C(C(=O)OC(C)C)C(c2ccc(Br)s2)NC(=O)N1C (centres undefined) | 2%
CCOC(=O)c1ccc2c(c1)nc(COc1ccccc1C#N)n2CC | -10%
CC(C)(C)NC(=O)COC(=O)c1ccccc1Nc1ccc(SC(F)F)cc1 | ?
COC(=O)c1ccc(OC)c(CSc2nnc(-c3ccc(C(C)(C)C)cc3)o2)c1 | -18%
C=C(C)COc1ccc(-c2[nH]ncc2Oc2cccc(OC)c2)c(O)c1 | -17%
O=C(NCC1CCCO1)c1onc(CSc2ccc(F)c(F)c2)c1C(=O)O (centres undefined) | -23%
O=C(C1CC1)N1CCc2cc(S(=O)(=O)N3CCOCC3)ccc21 | -3%
COc1ccc(OC)c(S(=O)(=O)N2CCC(C(=O)Nc3cc(C)ccc3C)CC2)c1 | -5%
Cc1cc2ncn(-c3ncnc4sc(C)c(C)c34)c2cc1C | -19%
C(=N\n1cnc2ccccc21)/c1cccnc1 | -6%
O=[N+]([O-])c1ccc(Cl)c(S(=O)(=O)N2CCCCCC2)c1 | -11%
COc1ccc(S(=O)(=O)N2CCN(CC(=O)Nc3ccc(C)c(F)c3)CC2)cc1 | -9%
O=C(NCc1ccccc1)c1noc2c1CCCC2 | -19%
CC(=O)Nc1sc2c(c1C(c1ccc(F)cc1)N1CCOCC1)CCCC2 (centres undefined) | -11%
Cc1ccc2c(c1)nnn2C1CCN(S(=O)(=O)c2ccc(C(=O)N3C(C)CCCC3C)cc2)CC1 (centres undefined) | -9%
Cc1nc2sccn2c1P(c1c(C)nc2sccn12)c1c(C)nc2sccn12 | 4%
Cn1c(C(=O)NCCCN2CCCCCC2)cc2c(=O)n(C)c3ccccc3c21 | -22%
CC(=O)c1ccc(NC(=S)NC(=O)c2c(Cl)c(C)nn2C)cc1 | -5%
Cn1ncc(C#N)c1/N=C/N1CCCCC1 | -1%
CC(OC(=O)c1ccc2c(=O)n3c(nc2c1)CCCCC3)C(=O)Nc1ccc(Cl)cn1 (centres undefined) | -13%
C1CCc2nnnn2CC1 | -7%&-8%&-8%
CCOc1cc(C2c3c(n[nH]c3C)C(=O)N2c2ccc(Br)cc2)ccc1O (centres undefined) | -16%
CN1CCc2c(sc3c2C(=O)NC(c2cccs2)N3)C1 (centres undefined) | -21%
N/C(=N\OC(=O)Cc1ccccc1)c1ccc(Br)cc1 | -13%
CCCC(C)NC(=O)Cc1ccccc1[N+](=O)[O-] (centres undefined) | -2%
O=C(CCCn1c(=S)[nH]c2ccccc2c1=O)NCc1ccco1 | ?
N#C/C(=C\c1ccc([N+](=O)[O-])o1)c1nc2ccccc2[nH]1 | -5%
CCOCCOC(=O)c1ccc(-n2cncn2)nc1 | -15%
COc1ccc(NC2=NC(=S)N(c3cccc(C)c3)C23CCCCC3)cc1 | -9%
Nc1c(Cl)ncnc1N/N=C/c1ccc2ccccc2n1 | -25%
CC(=O)NC(=O)c1nnn(Cc2ccccc2)c1NC(C)=O | -8%
Cc1ccc(N=CC2=C(O)CC(c3ccco3)CC2=O)cc1 (centres undefined) | -20%
COC(=O)[C@@]1(Cc2ccccc2)[C@H]2c3cc(C(=O)N4CCCC4)n(CCc4ccccn4)c3C[C@H]2CN1C(=O)c1ccccc1 | -5%
CN(C)CC[C@@H](c1ccc(Cl)cc1)c1ccccn1 | -11%&-1%
CCOc1cc(CNc2ccc(O)cc2)cc(Br)c1OCc1ccccc1F | -5%
CC(NC(=O)c1ccnc(C(C)(C)C)c1)c1ccccc1 (centres undefined) | 1%
COc1cccc(C(c2nnnn2Cc2ccco2)N2CCN(c3cccc(C)c3C)CC2)c1OC (centres undefined) | -9%
COCCCN(C)C1CCN(C(=O)Nc2ccc(F)cc2)CC1 | -6%
COc1ccc(CC(=O)Nc2cccc(/C(C)=N/NC(=O)c3cccc([N+](=O)[O-])c3)c2)cc1 | -11%
CCC[N+](CC#Cc1ccccc1)(CCC)CC(=O)OC | -6%
Cn1c(NC(=O)c2ccc(Cl)cc2)c(-c2ccccn2)c(=O)c2ccccc21 | -7%
COc1ccc2c(c1)c(=O)oc1cc3occ(C(C)(C)C)c3cc12 | ?

Filtered by structure, the compounds so far with a furan ring, fused or not (8)
SMILES | HPGD block
c1ccc(Sc2ncnc3c2oc2ccccc23)cc1 | 32µM*
O=C(c1ccco1)N1CCCC(c2ccccc2)C1 (centres undefined) | -5%
Cc1ccc(CSc2nnc(-c3ccco3)n2N)cc1 | -16%
O=C(CCCn1c(=S)[nH]c2ccccc2c1=O)NCc1ccco1 | ?
N#C/C(=C\c1ccc([N+](=O)[O-])o1)c1nc2ccccc2[nH]1 | -5%
Cc1ccc(N=CC2=C(O)CC(c3ccco3)CC2=O)cc1 (centres undefined) | -20%
COc1cccc(C(c2nnnn2Cc2ccco2)N2CCN(c3cccc(C)c3C)CC2)c1OC (centres undefined) | -9%
COc1ccc2c(c1)c(=O)oc1cc3occ(C(C)(C)C)c3cc12 | ?

New compounds follow.
SMILES | HPGD block
CCn1c(Cc2cccn2C)nnc1SCC(=O)c1ccc(C)cc1 | ?
Nc1c(C(=O)NCc2ccc(Cl)cc2)sc2nc3c(c(C(F)(F)F)c12)CCC3 | -25%
CCOC(=O)CC1C(=O)NCCN1Cc1cccc(C(F)(F)F)c1 (centres undefined) | -12%
CC(=O)Nc1sc(C)c(C)c1C(=O)OCC(=O)Nc1cc(S(=O)(=O)N2CCCCC2)ccc1Cl | ?
O=C(Cn1c(COc2ccc(Cl)cc2)nc2ccccc21)NCC(F)(F)F | 0%
O=c1cc(-c2ccccc2)[nH]c2ccc(F)cc12 | ?
CCOC(=O)CCn1c(=O)c2c(nc(Br)n2Cc2ccccc2)n(C)c1=O | -22%
CN(C(=O)c1ccccc1Cl)c1ccccc1 | -13%
O=C(Cc1ccc(Cl)cc1Cl)OCC(=O)c1ccc[nH]1 | -20%
Cc1ccc(S(=O)(=O)N(C)CC(=O)O/N=C(\N)c2ccc([N+](=O)[O-])cc2)cc1 | -11%
CCOc1ccc2c(O)csc2c1 | -16%
CN(Cc1ccccc1)c1nc2c(c(=O)[nH]c(=O)n2C)n1Cc1ccccc1 | -13%
COC(=O)CNC(=O)CCCCC(=O)NCC(=O)OC | -8%
Cc1cc2c(cc1C)-c1nnnn1C(C)(C)C2 | -4%
O=C(/C=C/c1ccccc1[N+](=O)[O-])NCc1cccnc1 | -17%
CN1OC(COC(=O)c2ccc(Cl)cc2Cl)CC1c1ccccc1 (centres undefined) | -10%
CS(=O)(=O)N1CCC2(CCN(Cc3ccncc3)CC2)CC1 | -18%
CCN1C(=O)/C(=C\N(C)C)NC1=S | -9%
COc1ccc(OC)c(N2C(=O)CC(Cc3ccc(C)cc3)C2=O)c1 (centres undefined) | 1%
Cc1cc(OCCSc2nnc(-c3cccs3)n2C)ccc1Cl | ?
Cc1ccc(-c2cc(N)n[nH]2)cc1 | -4%
CC1(C)CC(=O)c2cc(OCC(=O)NCCCN3CCN(c4ccccc4F)CC3)ccc2O1 | -27%
Cc1[nH]nc(-c2ccc(O)c(C)c2O)c1Oc1ccccc1 | -20%
C=CCOC(=O)Nc1c(C(=O)OC)[nH]c2ccc(Cl)cc12 | ?
COc1ccc(-c2cc(C(=O)N/N=C/c3ccc(OC)c(OC)c3)[nH]n2)cc1 | ?
COc1ccc2[nH]c(=O)c(COC(=O)c3ccco3)cc2c1 | -27%
O=C(Nc1ncc(Cc2ccc(SC(F)F)cc2)s1)c1ccc(OC(F)F)cc1 | -29%
CC(C)(C)n1nc2c(c1NC(=O)c1ccc(Br)o1)CS(=O)C2 (centres undefined) | 1%
CCOC(=O)c1ccc(NC(=O)CSc2nc3c(c(=O)n2CC)SC(C)C3)cc1 (centres undefined) | -9%
CCOc1cc(CN2CCOCC2)cc(C(C)=O)c1 | -7%
CC(C)NC(=O)c1ccccc1NC(=O)CCS(=O)(=O)Cc1ccccc1 | 1%
Nc1nc(NC(=O)c2cccnc2)nn1-c1ccccc1 | -3%
Cn1c(SCC(=O)c2ccccc2)nnc1-c1cccc(N)c1 | -8%
Cc1nc(SCC(O)CO)c([N+](=O)[O-])[nH]1 (centres undefined) | -7%
Cc1ccc(SCC(=O)NCCN2C(=O)CSC2=O)c(C)c1 | -5%
COc1ccc(C2C/C(=N\O)C(C)(C)O2)cc1 (centres undefined) | -7%
CCC1=NN(C(=O)c2cccnc2)C(O)(C(F)(F)F)C1 (centres undefined) | -2%
Cc1ccc(-n2c(N)c(-c3nc4ccccc4n3C)sc2=S)cc1 | 6.3µM*
COc1cc(C(=O)N2CCN(C(=O)CC(C)C)CC2)cc(OC)c1OC | -1%
Cc1ccc(Nc2nc(N)nc(CN3CCN(Cc4ccc5c(c4)OCO5)CC3)n2)cc1Cl | 1%
C=CCn1c(SCC(=O)Nc2cc(C)on2)nc2sc3c(c2c1=O)CCCC3 | -2%
COC(=O)c1sccc1NC(=O)c1c(-c2ccccc2)noc1C | -18%
CCC(c1nnc(SCC(=O)N2CC3(C)CC2CC(C)(C)C3)o1)N(C)C (centres undefined) | -17%
CC(=O)n1c2ccccc2c2c1c1ccccc1n2C | ?
OCCCCCNc1ncnc2ccccc12 | -3%
COc1ccc(S(=O)(=O)Cc2ccc(C(=O)NCc3ccco3)o2)cc1 | -15%
Cc1cc(NC(=O)CNC(=O)C2CCCCC2)no1 | -7%
Cc1noc2ncc(C(=O)c3cc(F)ccc3O)cc12 | -18%
CN=C1SC(CC(=O)Nc2c(C)cccc2C)C(=O)N1/N=C/c1cccs1 (centres undefined) | -5%
CSc1nc(Oc2ccc(=O)[nH]n2)nc(N(C)C)n1 | -11%

(listing goes on)
SMILES | HPGD block
COC(=O)c1[nH]c2ccccc2c1NC(=O)C(C)N1CCN(C(=O)c2ccco2)CC1 (centres undefined) | -10%
FC(F)(F)c1cc(Cl)c2nc(-c3ccccc3)cn2c1 | -14%
O=C(N/N=C/c1ccc(Cl)cc1)c1sccc1OCc1ccc(F)cc1 | 2%
O=C1COc2ccc(C(=O)CSc3nnc(Cc4cccs4)n3-c3ccccc3)cc2N1 | -26%
CCC1CCCCN1C1Sc2ccc(C(=O)OC)cc2NC1=O (centres undefined) | -14%
CCCCNC(=O)CCn1c(=S)[nH]c2cc3c(cc2c1=O)OCO3 | -24%
CC(=O)N1N=C(c2ccc(C)cc2)OC1c1ccc(C(C)C)cc1 (centres undefined) | -24%
Cc1ccc(O)c(NC(=O)c2cccc(S(=O)(=O)N3CCCCC3)c2)c1 | 1%
COCCn1nnnc1C(c1ccccc1OC)N1CCN(c2ccccc2F)CC1 (centres undefined) | 3%
COc1ccc(C2C(C#N)=C(N)Oc3n[nH]c(C)c32)cc1CSc1ccccn1 (centres undefined) | -7%
Cc1cccc(C)c1N1CCN(c2nc(N(C)C)oc(=O)c2C#N)CC1 | ?
CCCCOP(=O)(c1ccc(N(C)C)cc1)C(O)c1cccnc1 (centres undefined) | -6%
Cc1cc(C(=O)Cn2nnc(-c3ccc(Cl)cc3)n2)c(C)n1CC1CCCO1 (centres undefined) | ?
O=C(Nc1nc2ccccc2[nH]1)C1CCCO1 (centres undefined) | -7%
Clc1ccccc1-c1nc(-c2cccnc2)no1 | -16%
CCn1c(SCC(=O)Nc2cc(C)c(Cl)cc2OC)nnc1-c1ccco1 | 0%
COc1ccc(/C=N/Nc2ccc([N+](=O)[O-])cc2)cc1Cn1cc([N+](=O)[O-])cn1 | -13%
O=C1NC(=S)SC1=C1CCCCCC1 | 11µM*
CC1=NNC(=O)C1C(c1ccccc1)C(C#N)C#N (centres undefined) | ?
O=C(NCc1ccccc1F)C1CCCN1C(=O)NCc1ccccc1 (centres undefined) | -6%
NC(=O)CC[C@H](NC(=O)c1ccc(F)cc1)C(=O)OCC(=O)Nc1c(F)c(F)c(F)c(F)c1F | -7%
Cn1c2c(c(=O)n(C)c1=O)CN(Cc1ccco1)CN2 | -4%
O=C(CSc1nc2ccccc2o1)Nc1ccccc1N1CCOCC1 | -11%
CN(c1ccccc1)S(=O)(=O)c1cccc(NC(=O)CSc2nnc(N)s2)c1 | -12%
c1coc(-c2nnc3sc(-c4cccs4)nn23)c1 | -13%
Cc1cccc(-n2c(=O)[nH]c3c(C(N)=O)nc(CC(C)C)nc32)c1 | -24%

Not all compounds are listed; rates above refer to the full screens.
